High-throughput results: PubChem BioAssay, National Center for Advancing Translational Sciences (NCATS)
GLS inh = blocks human kidney-isoform glutaminase activity. O94925. GLS enzymatic activity, qHTS titration. Potency, µM (doses to about 45.5 µM), without a hit: at the top dose activity change, negative = inhibition, most hits filed as inhibitors. actives 0.21% (n = 410,000); also: % is scaled to controls: 0 for no effect and ±100 for the full control effect
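Enzyme dispensed in phosphate buffer (45 mM, pH 8.2, 0.02% Tween-20), compounds pinned in, then 1 mM L-glutamine solution and the glutamate oxidase–HRP–Amplex Red mix added; fluorescence read immediately and again after 30 min at room temperature.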
Pol iota inh = inhibitors of human DNA polymerase iota | Pol iota fluorescent replication assay, 10 min | Potency, µM (series often up to 115 µM), for the others: at the top dose activity, negative = inhibition, actives largely listed as inhibitors | actives 1% (n = 390,000) | AID 588590
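Pol iota at 10 nM preincubated 15 min with compounds at room temperature; reaction started with fluorescent substrate, 50 nM final. Fluorescence read kinetically at 0 and 10 min; buffer-only wells as negative control.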
PGK inhibitor = T. brucei PGK inhibition; PGK/GAPDH coupled, Kinase-Glo luminescence, 60 min; Potency, µM (titrated, usually from 57.5 µM), without a hit: at the top dose activity change, negative = inhibition, usual class: inhibitors; actives 0.043% (n = 380,000); also: % is scaled to controls: 0 for no effect and ±100 for the full control effect; nearly all actives have a fitted effect of over 60% in size
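Luminescent ATP detection (Kinase-Glo Plus) follows a 60-minute room-temperature incubation, with wells lacking PGK as controls. Buffer: 100 mM TEA (pH 7.6), 5 mM MgCl2, 0.01% Tween-20. Coupling enzyme GAPDH (100 nM final) supplies unstable 1,3-BPG in-well.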
Pin1 inh = human Pin1 inhibition. Potency, µM (series often up to 115 µM), without a hit: at the top dose activity, negative = inhibition, most hits filed as inhibitors. Pin1 FP peptide displacement, HiFluor488, 10 min. Q13526. actives 0.009% (n = 390,000); active = well fitted inhibition curve with a large enough effect in the polarisation, with a control signal flat, not every such curve was filed as active; inconclusive = small, poorly fitted or top-dose-only effect, or effect the other way, or a change in a side signal; inactive = no such curve, though single readings can be large or run the other way; the % refers to the polarisation; also: % is scaled to controls: 0 for no effect and ±100 for the full control effect
BLM inh = blocks DNA unwinding by human BLM helicase | recombinant BLM DNA unwinding, fluorescence dequenching | actives 0.2% (n = 350,000) | Potency, µM (series often up to 56.1 µM), for the others: at the highest dose activity change, negative = inhibition, most hits filed as inhibitors | P54132;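 also: plate controls were vehicle for no effect and no enzyme for full effect; nearly all actives have a fitted effect of over 35% in size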
* = called active by the depositor; i = inactive; u = inconclusive; x = no result given; [ ] = another dose, or the depositor's remark. Unless noted, calls follow the shape of the dose curve; as a rule, active = well fitted curve in the direction sought with a large enough effect; inconclusive = small, poorly fitted or top-dose-only effect, or another doubt; inactive = no such curve, though single readings can be large; an effect the other way counts as inactive or inconclusive. Potency is read from the fitted curve at half-maximal effect.

1	C[C@H](NC(=O)c1nc[nH]c1C(=O)N1CCc2ccccc2C1)C(=O)OC(C)(C)C
2	O=C1N(Cc2ccccc2)c2ccccc2C12OCCO2
3	CCOC(=O)c1sc(NC(=S)NC(=O)c2ccc(OC)cc2)nc1C
4	c1ccc(-c2nc(CSc3n[nH]c(-c4cccs4)n3)cs2)cc1
5	COc1ccc(/C=C/C(=O)c2cc(F)ccc2OC(=O)c2ccccc2C)cc1OC
6	COC(=O)C1=C(C)NC(C)=C(C(=O)OCCCN2CCC(c3ccccc3)(c3ccccc3)CC2)C1c1cccc([N+](=O)[O-])c1 (stereo unspecified)

assay / entry | 1 | 2 | 3 | 4 | 5 | 6
GLS inh | 0.4% | -14.1% | 6.2% | 6.5% | -2.9% | 14.5%
Pol iota inh | 47.4%[activator] | 149.8%[activator] | 117.1%[activator] | -8.2% | 8.5% | x
PGK inhibitor | -4.7% | i | i | -14.6% | -3.0% | x
Pin1 inh | -1.8% | -4.1% | -0.5% | -0.3% | 12.3% | x
BLM inh | -9.6% | 1.8% | -5.8% | -6.0% | -15.8% | -8.2%

7	CCOc1cccc(C(=O)Nc2ccc(NC(=O)c3ccccc3)c(C)c2)c1
8	COc1ccc(NC(=O)COC(=O)c2c3c(nc4ccccc24)CCCC3)cc1Cl
9	CC(=O)SC(C[N+](=O)[O-])c1cn(C(C)=O)c2ccccc12 (stereo unspecified)
10	COc1ccc(CNCC(O)(c2ccc(Cl)cc2)c2ccc(Cl)cc2)cc1
11	CCOC(=O)c1c(NC2OC(=O)c3c2ccc(OC)c3OC)sc(C(=O)OC(C)(C)C)c1C (stereo unspecified)
12	C[C@H](NC(=O)c1nc[nH]c1C(=O)NC1CCN(C(=O)OC(C)(C)C)CC1)C(=O)OC(C)(C)C

assay / entry | 7 | 8 | 9 | 10 | 11 | 12
GLS inh | -0.8% | -9.4% | u | 2.6% | u | -3.6%
Pol iota inh | 44.5%[activator] | u | 14.6% | 12.7% | 94.9%[activator] | 27.5%
PGK inhibitor | -9.9% | 3.2% | 10.0% | 0.3% | -9.5% | -6.1%
Pin1 inh | 2.9% | 15.7% | 10.2% | u | -2.5% | -5.0%
BLM inh | -3.1% | -11.3% | -13.2% | -9.8% | -11.3% | -8.5%

13	Cc1ccc(CNC(=O)C2CCN(S(=O)(=O)c3cn(C)cn3)CC2)cc1
14	CCc1nn2c(-c3ccccc3OC)ccnc2c1-c1ccc(F)cc1
15	COc1ccc(OC)c(N(CC(=O)Nc2ccc(NC(C)=O)cc2)S(C)(=O)=O)c1
16	Nc1ccn([C@@H]2O[C@H](CO)[C@@H](O)[C@@H]2O)c(=O)n1
17	N#Cc1ccc(-c2cccnc2)nc1SCc1ccc(Cl)cc1Cl
18	CN(C)c1oc(/C=C/c2ccccc2)nc1C#N

assay / entry | 13 | 14 | 15 | 16 | 17 | 18
GLS inh | -8.1% | 6.9% | 7.9% | -2.6% | -8.9% | 5.8%
Pol iota inh | 4.8% | -8.6% | 25.3% | -14.5% | 25.3% | 17.9%
PGK inhibitor | 4.4% | 7.0% | 0.9% | 9.0% | 3.7% | i
Pin1 inh | -12.3% | 5.3% | -5.6% | -5.1% | 1.3% | -3.0%
BLM inh | 2.4% | -8.7% | -3.1% | -11.7% | -3.5% | 4.2%

Compounds listed so far containing a carbonyl joined to an NH by a bond outside any ring, in the order listed:
1	C[C@H](NC(=O)c1nc[nH]c1C(=O)N1CCc2ccccc2C1)C(=O)OC(C)(C)C
3	CCOC(=O)c1sc(NC(=S)NC(=O)c2ccc(OC)cc2)nc1C
7	CCOc1cccc(C(=O)Nc2ccc(NC(=O)c3ccccc3)c(C)c2)c1
8	COc1ccc(NC(=O)COC(=O)c2c3c(nc4ccccc24)CCCC3)cc1Cl
12	C[C@H](NC(=O)c1nc[nH]c1C(=O)NC1CCN(C(=O)OC(C)(C)C)CC1)C(=O)OC(C)(C)C
13	Cc1ccc(CNC(=O)C2CCN(S(=O)(=O)c3cn(C)cn3)CC2)cc1
15	COc1ccc(OC)c(N(CC(=O)Nc2ccc(NC(C)=O)cc2)S(C)(=O)=O)c1

assay / entry | 1 | 3 | 7 | 8 | 12 | 13 | 15
GLS inh | 0.4% | 6.2% | -0.8% | -9.4% | -3.6% | -8.1% | 7.9%
Pol iota inh | 47.4%[activator] | 117.1%[activator] | 44.5%[activator] | u | 27.5% | 4.8% | 25.3%
PGK inhibitor | -4.7% | i | -9.9% | 3.2% | -6.1% | 4.4% | 0.9%
Pin1 inh | -1.8% | -0.5% | 2.9% | 15.7% | -5.0% | -12.3% | -5.6%
BLM inh | -9.6% | -5.8% | -3.1% | -11.3% | -8.5% | 2.4% | -3.1%

An excerpt (hit frequency here may not be typical).
